Source: PubChem BioAssay (several laboratories)
MT1-MMP act inh: MT1-MMP (human) activation inhibition; HT1080 RFP-PRO-GFP cells, GFP/RFP ratio fluorescence, overnight; percent of plate control window, DMSO zero; hit rate 0.061% among 360,000; P50281; GFP/RFP ratio change, % at 20 µM;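 active = GFP/RFP ratio change of at least 30% with cell ATP level not reduced by more than half and red fluorescence within 50% of control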; also: strong numbers were not always called active
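Assay system: HT1080 RFP-PRO-GFP cells | Dosing: 20 µM single dose, 1% DMSO | Incubation: Cells overnight before dosing, compound overnight, 37 °C, 5% CO2 | Evaluation: GFP/RFP fluorescence ratio | Control set: DMSO-only wells and HT1080 RFP-L50D-GFP cell wells as references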
Yeast UUG start: alters start codon recognition fidelity in yeast; activity score, % at 18.7 µM; hit rate 0.13% among 350,000; S. cerevisiae UUG-firefly luciferase reporter, luminescence/redox ratio; AID 602363;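 active = replicate mean at a twofold rise or more, about +100% in these data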;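 also: firefly luciferase made from a UUG start codon reports start codon fidelity; reporter light over untreated wells divided by growth signal over untreated wells; some hits fall short of that in this replicate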
Rce1 inhib: blocks yeast Ras-converting enzyme | yeast membranes, quenched prenylated peptide cleavage fluorescence | Q03530 | hit rate 0.27% among 290,000 | calls only | AID 2563;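 active = fall in fluorescence gain of 50% or more versus controls, with final raw signal at or below 3038400; inconclusive = same 50% fall but final raw signal above 3038400; inactive = fall in fluorescence gain under 50%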;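 also: plate controls were neutral control wells for no effect and wells lacking membranes for full effect; tested at 10 µM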
Target sequence (Q03530 whole entry, looked up): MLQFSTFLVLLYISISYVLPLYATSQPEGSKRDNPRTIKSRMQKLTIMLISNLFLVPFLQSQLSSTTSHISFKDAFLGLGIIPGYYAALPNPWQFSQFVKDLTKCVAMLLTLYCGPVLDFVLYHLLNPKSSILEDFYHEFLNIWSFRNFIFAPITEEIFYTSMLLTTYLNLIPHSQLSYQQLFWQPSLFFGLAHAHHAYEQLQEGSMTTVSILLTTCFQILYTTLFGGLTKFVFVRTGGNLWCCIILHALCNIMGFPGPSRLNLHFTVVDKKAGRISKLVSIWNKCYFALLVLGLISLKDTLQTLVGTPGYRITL
CSC inhib: cancer stem cell inhibition; cancer stem cell-like cells viability, luminescence; inhibition, % at 7.5 µM; hit rate 1.1% among 300,000;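 active = mean at 75% or more and at least half the replicates too; inconclusive = mean and replicates disagree; tested in HMLE shEcad cells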;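 also: 0% = median of negative and 100% = median of positive control wells; the first replicate is given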
eIF4H inh: inhibitors of RNA binding by human eIF4H; Q15056; inhibition, % at 35 µM; eIF4H fluorescence polarization binding assay; hit rate 0.94% among 290,000;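 active = 50% or more with normal probe brightness, or confirmed in later tests; inconclusive = above 50% with abnormal brightness, or retests that disagree; inactive = below 50% or failed in later tests; about a fifth of its hits are not listed in these tables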;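 also: calls also rest on retests at 20 µM and on dose response follow-up; 0% = protein and probe with vehicle and 100% = probe without protein; strong numbers were not always called active; many hits fall short of the cut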
PABP FP inh: blocks human PABP binding to poly(A) RNA; P11940; fluorescence polarization; hit rate 1% among 290,000; inhibition, % at 35 µM; AID 2014;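 active = 50% or more with normal probe brightness, or confirmed in later tests; inconclusive = above 50% with abnormal brightness, or retests that disagree; inactive = below 50% or failed in later tests; about a fifth of its hits are not listed in these tables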;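 also: calls also rest on retests at 20 µM and on dose response follow-up; controls were probe without protein and protein plus probe with vehicle; some compounds called inactive have numbers as strong as hits; many hits fall short of the cut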
Target sequence (P11940 whole entry, looked up): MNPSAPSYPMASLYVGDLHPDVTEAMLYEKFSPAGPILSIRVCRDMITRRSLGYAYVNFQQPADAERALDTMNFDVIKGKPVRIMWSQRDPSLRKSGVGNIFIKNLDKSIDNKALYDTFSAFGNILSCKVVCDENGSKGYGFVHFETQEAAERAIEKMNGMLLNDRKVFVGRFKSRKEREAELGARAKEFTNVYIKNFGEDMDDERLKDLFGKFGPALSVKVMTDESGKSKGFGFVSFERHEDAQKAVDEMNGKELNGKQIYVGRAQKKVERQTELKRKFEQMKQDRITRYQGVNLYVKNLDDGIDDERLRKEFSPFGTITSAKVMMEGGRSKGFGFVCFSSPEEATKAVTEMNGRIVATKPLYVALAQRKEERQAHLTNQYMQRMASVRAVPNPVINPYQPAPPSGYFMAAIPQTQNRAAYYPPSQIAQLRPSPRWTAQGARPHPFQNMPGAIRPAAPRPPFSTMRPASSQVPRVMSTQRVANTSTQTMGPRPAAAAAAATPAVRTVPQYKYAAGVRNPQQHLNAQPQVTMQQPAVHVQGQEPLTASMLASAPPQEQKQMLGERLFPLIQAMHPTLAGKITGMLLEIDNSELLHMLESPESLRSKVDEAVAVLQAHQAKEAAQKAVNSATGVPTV
Env fusion inh: blocks HIV Env-driven cell-cell fusion. HeLa-JRFL Env/CEM21 cell fusion, luciferase. inhibition, % at 12.3 µM. hit rate 1.1% among 360,000. AID 651610;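 active = mean replicate inhibition score of at least 50 and every replicate individually at or above 50; inconclusive = only one of the two criteria met; inactive = mean below 50 and not all replicates reaching 50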;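 also: 0% = plate neutral controls and 100% = maraviroc near 300 nM; one replicate is shown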
eIF4H inh retest: further read-out of eIF4H inh, marked with its call; inhibition, %; compound at 20 µM; confirmation average;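 mean of two retest wells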
PABP FP inh retest: recorded beside PABP FP inh, whose call it bears; inhibition, %; compound at 20 µM; confirmation repeats;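 mean of two retest wells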
MT1-MMP act inh RFP: second read-out of MT1-MMP act inh, no call of its own (marks repeat the call); RFP signal change, %; measured here: RFP expression control read;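 0 = vehicle wells; hits needed this value within 50% of zero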
* hit, by the source's call; i = inactive; ? = inconclusive; . = no result given; & = joins results of further samples.

SMILES	MT1-MMP act inh	MT1-MMP act inh RFP	Yeast UUG start	Rce1 inhib	CSC inhib	eIF4H inh	PABP FP inh	Env fusion inh	others
c1ccc(-c2ccccc2-n2cnnn2)cc1	1	2	-11	i	0	-5	-5	-23
O=C(O)c1ccc(OCc2ccc(C(=O)O)o2)cc1	3	6	.	i	-13	6	5	-2
NC(=O)C1(C(N)=O)OC1c1ccccc1 (stereo unspecified)	-1	4	.	i	-6	-5	10	-2
COc1cccc(N2CC(C(=O)Nc3c(C)cccc3C)CC2=O)c1 (stereo unspecified)	1	0	-4	i	-11	6	-11	.
S=P(N1CC1)(N1CC1)N1CC1	-3	2	-17	.	2	.	.	21
COc1cccc(OCC(=O)NC2CCS(=O)(=O)C2)c1 (stereo unspecified)	-2	5	-5	.	.	.	.	22
CCC(C)[C@H](NC(=O)NCc1ccc(F)cc1)C(=O)O (stereo partly specified)	2	1	-16	i	-1	?	?	-5
Cn1c(=O)c(C(=O)NCCc2ccccc2)c(O)c2ccccc21	-1	3	-5	i	0	3	-1	-5
Cc1ccc(-c2nnn(CC(=O)N3CCN(c4nc5ccccc5s4)CC3)n2)cc1	5	-1	8	i	-7	-5	1	-29
CCCCOC(=O)Nc1cc(C(=O)OC)ccc1C(=O)OC	-6	-7	-7	i	2	7	6	.
COc1ccc(CC(=O)OCC(=O)Nc2ccc3c(c2)OCO3)cc1OC	0	3	.	i	-2	-1	1	2
COc1ccc(OC)c(C(O)c2ncc(-c3cccc(C(F)(F)F)c3)[nH]2)c1 (stereo unspecified)	1	-3	-12	.	.	.	.	-10
O=C(C(Cl)Cl)N1CCN(c2ccccn2)CC1	3	6	.	i	-3	0	-6	-4
COC(=O)c1cc(-c2ccc(OC)cc2)n[nH]1	0	-2	-15	i	-1	-12	-1	-23
O=C1N(c2ccc(Cl)cc2)C(c2ccccc2)N2CCCN12 (stereo unspecified)	0	-2	.	i	3	-1	11	-35
COc1ccccc1C(=O)NNC1=NS(=O)(=O)c2ccccc21	-2	0	4	i	-14	9	-12	-10
CCN1CCCC1CNC(=O)Cn1cnc2ccc(S(=O)(=O)N3CCC(C)CC3)cc2c1=O (stereo unspecified)	-4	8	-13	i	6	-4	0	-19
Cc1nn(C)c(C)c1S(=O)(=O)N(CC(=O)NCCCN1CCC(C)CC1)c1ccc(C(C)C)cc1	0	-1	-5	i	6	.	.	-1
Cc1cc(C(=O)OCC(=O)NNC(=O)c2cccs2)ccc1[N+](=O)[O-]	6	6	3	i	-4	.	.	.
CCCc1nc2c(s1)CCc1onc(-c3ccc(Br)cc3)c1-2	.	.	-14	i	26	.	.	-16

Fetched one by one from above (3):
SMILES	MT1-MMP act inh	MT1-MMP act inh RFP	Yeast UUG start	Rce1 inhib	CSC inhib	eIF4H inh	PABP FP inh	Env fusion inh	others
O=C(C(Cl)Cl)N1CCN(c2ccccn2)CC1	3	6	.	i	-3	0	-6	-4
O=C1N(c2ccc(Cl)cc2)C(c2ccccc2)N2CCCN12 (stereo unspecified)	0	-2	.	i	3	-1	11	-35
COc1cccc(OCC(=O)NC2CCS(=O)(=O)C2)c1 (stereo unspecified)	-2	5	-5	.	.	.	.	22

(next part)
SMILES	MT1-MMP act inh	MT1-MMP act inh RFP	Yeast UUG start	Rce1 inhib	CSC inhib	eIF4H inh	PABP FP inh	Env fusion inh	others
COc1ccc(-n2c(C)c(C(C)=O)c3cc(O)ccc32)cc1	-4	-7	-23	i	.	-1	-8	.
O=C1CC(Sc2ccc(Cl)cc2)C(=O)N1Cc1ccncc1 (stereo unspecified)	-4	-6	-20	i	10	1	-5	-1
CCOc1ccc2nc(N(CCN(C)C)C(=O)c3cc4ccccc4cc3OC)sc2c1	-4	-2	-17	i	-9	-1	3	.
N#CCCN(C(=O)CN1c2cccc3cccc(c23)S1(=O)=O)c1ccccc1	1	0	-20	.	-7	.	.	-16
NC(=O)c1ccc(NC(=O)c2ccc(CN3CCOCC3)cc2)cc1	3	8	-13	i	-8	3	-7	-17
c1csc(Cc2nc3ccccc3[nH]2)c1	1	-1	-4	i	-16	-5	-12	.
COc1ccc(NC(=O)c2ccco2)cc1NC(=O)c1ccccc1	1	1	-13	i	.	-11	2	-12
Cn1c(=O)c(NCCc2ccccc2)c2c3c(cccc31)C(=O)c1ccccc1-2	-67	48	-27	i	11	128*	120*	.	eIF4H inh retest=99*;PABP FP inh retest=94*
O=Cc1[nH]c2ccccc2c1N(C(=O)CCl)c1ccc([N+](=O)[O-])cc1	-2	-6	-5	i	66	-7	4	45
Cc1cc(C)c(NC(=O)CNC(=O)COC(=O)C2=COCCO2)c(C)c1	-1	2	.	i	-10	.	.	-2
CCOC(=O)C1(C)CCCN(C(=O)c2ccc(F)c(Cl)c2)C1 (stereo unspecified)	1	5	-9	.	.	.	.	-4
O=C(Nc1ccccc1)SC1CCCCC1	1	2	-7	.	.	.	.	-27
CCCCC1CCCC12NC(=O)NC2=O (stereo unspecified)	1	3	-13	i	0	3	6	3
COc1ccc(/C=C/C(=O)NC(=S)NNC(=O)c2ccco2)cc1OC	9	5	-25	i	9	3	10	-4
N#CC(C#N)=Cc1ccc(NC(=O)c2ccc(Br)cc2)cc1	0	-2	79	i	-8	0	-3	-30
CO/N=C\CC(=O)Nc1ccc(Cl)cc1Cl	-1	-4	.	i	.	4	2	-85
C(=N\c1nccs1)/c1c[nH]c2ccccc12	-1	7	-4	i	-5	1	13	.
Cc1ccccc1CSCCNC(=O)CSCc1ccc([N+](=O)[O-])cc1	0	4	8	i	5	-13	-12	?
Cn1c(/C=C/c2ccccc2)nc2ccccc21	1	-1	.	?	51	-16	-2	-5
C=CCN=C1S/C(=C\c2ccc(N(C)C)cc2)C(=O)N1CC=C	-11	-6	.	i	38	-13	-17	-35

By substructure, those above containing bromine
SMILES	MT1-MMP act inh	MT1-MMP act inh RFP	Yeast UUG start	Rce1 inhib	CSC inhib	eIF4H inh	PABP FP inh	Env fusion inh	others
CCCc1nc2c(s1)CCc1onc(-c3ccc(Br)cc3)c1-2	.	.	-14	i	26	.	.	-16
N#CC(C#N)=Cc1ccc(NC(=O)c2ccc(Br)cc2)cc1	0	-2	79	i	-8	0	-3	-30

Back to the main list with the two entries that preceded the break.
SMILES	MT1-MMP act inh	MT1-MMP act inh RFP	Yeast UUG start	Rce1 inhib	CSC inhib	eIF4H inh	PABP FP inh	Env fusion inh	others
Cn1c(/C=C/c2ccccc2)nc2ccccc21	1	-1	.	?	51	-16	-2	-5
C=CCN=C1S/C(=C\c2ccc(N(C)C)cc2)C(=O)N1CC=C	-11	-6	.	i	38	-13	-17	-35
CCCn1nnnc1NCc1ccc(OC)cc1	2	2	-10	i	-16	-2	0	6
Cc1ccc(NC(=S)NC(NC(=O)c2ccco2)C(Cl)(Cl)Cl)cc1 (stereo unspecified)	5	1	-20	i	.	7	8	-131
COC(=O)C1=C(N)OC2=C(C(=O)CC(C)(C)C2)C1c1ccoc1 (stereo unspecified)	0	2	-24	i	-12	2	5	.
CCc1ccccc1NC(=O)CNC(=O)CCc1nc2sc3c(c2c(=O)[nH]1)CCCC3	-5	1	-10	i	-8	.	.	11
O=C1COc2ccc(C(=O)CSc3ccccc3C(=O)O)cc2N1	4	5	3	i	-20	0	10	5
CC(OC(=O)c1nn(C)c(=O)c2ccccc12)C(=O)NC1CCCCC1C (stereo unspecified)	0	7	3	i	-5	.	.	-4
COc1ccc(C(=O)/C=C2/C(=O)Nc3ccccc32)cc1	-4	-10	1	i	?	-2	2	15
COc1ccc(CN2CCCC(C(=O)N3CCCC3)C2)c(OC)c1OC (stereo unspecified)	3	3	-14&5	.	.	.	.	7
CN1CCN(c2ccc(NC(=O)c3ccco3)cc2Cl)CC1	-5	5	-40	i	0	-4	0	-47
O=C(CCNS(=O)(=O)c1ccccc1C(F)(F)F)N1CCN(S(=O)(=O)c2cccc(F)c2)CC1	1	6	.	i	-2	.	.	-47
COc1cc(C(=O)OC(C)c2ccc(F)cc2)ccc1OCC(=O)N1CCOCC1 (stereo unspecified)	-1	0	9	.	-9	.	.	-5
COc1nccnc1NS(=O)(=O)c1ccc(N=Cc2c(C)[nH]n(-c3ccc(Cl)cc3)c2=O)cc1	.	.	.	i	-3	-2	1	-11
Cc1ccc(C)c(NC(=S)NC(NC(=O)N(C)C)C(Cl)(Cl)Cl)c1 (stereo unspecified)	-4	2	-23	i	-10	-4	-1	.
COc1ccc(-n2c(O)c(C=NCC(c3ccco3)N3CCCC3)c3ccccc3c2=O)cc1OC (stereo unspecified)	-3	4	.	i	-14	8	4	.
CS(=O)(=O)c1ccc(C(=O)NCCN2C(=O)S/C(=C\c3cccnc3)C2=O)cc1[N+](=O)[O-]	-6	-12	.	i	50	-6	16	-26
CCCN(CC(=O)Nc1ccccc1C)C(=O)C1CCN(c2ncnc3sc(C)c(C)c23)CC1	-7	-9	-13	i	-6	.	.	12
Cc1cccc(-n2c(SC(C)C(=O)O)nc3sc4c(c3c2=O)CCCC4)c1 (stereo unspecified)	-2	2	-3	i	-6	-6	-6	-4
CCc1cc2c(=O)c(-c3cscn3)coc2c(CN(C)C)c1O	-1	-9	-16	i	23	5	-3	.
C=CCN(c1ccc(C(=O)NCCCn2ccnc2)cc1)S(C)(=O)=O	0	1	-6	i	-10	4	8	15
Cn1c(=O)oc2cc(S(=O)(=O)Nc3ccccc3)ccc21	0	3	.	i	-2	2	-4	5
C/C(CCC(C)C)=N\NC(=O)COc1ccccc1-c1ccccc1	-3	5	-19	.	.	-6	-5	6
c1ccc(OCCCCN2CCCCC2)cc1	-1	0	-1	i	-13	0	1	-10
CCCCOC(=O)Nc1nnc(COc2ccccc2)s1	-3	-1	-23	i	0	-9	2	-16
CCCCN(C(=O)C1=NN(c2ccccc2)C(=O)CC1)c1c(N)n(CCC)c(=O)[nH]c1=O	-1	2	-6	.	-4	.	.	-1
COc1ccc(CC(=O)N2N=C(C)CC2(O)c2cccnc2)cc1OC (stereo unspecified)	5	6	-16	i	-13	-16	-4	3
COc1ccc(C(=O)NCCOc2cccc(OC)c2)cc1	-1	4	.	i	-5	-4	-6	1
CCOc1ccccc1CN1CCN(CCCc2ccccc2)CC1CCO (stereo unspecified)	-3	-1	2	i	1	1	-5	-44
Cc1cc([N+](=O)[O-])cc2c1NC(=O)C2(O)N1CCOCC1 (stereo unspecified)	2	5	-10	i	-3	3	-1	6
CN(C1=C(N2CCOCC2)C(=O)c2ccccc2C1=O)c1ccccc1	0	-3	-9	i	41	1	-10	24
Nc1[nH]nc2ncc3cc4ccccc4nc3c12	-42	-8	.	i	21	17	14	-39

Molecules shown so far with a thiophene ring, fused or not (5):
SMILES	MT1-MMP act inh	MT1-MMP act inh RFP	Yeast UUG start	Rce1 inhib	CSC inhib	eIF4H inh	PABP FP inh	Env fusion inh	others
Cc1cc(C(=O)OCC(=O)NNC(=O)c2cccs2)ccc1[N+](=O)[O-]	6	6	3	i	-4	.	.	.
c1csc(Cc2nc3ccccc3[nH]2)c1	1	-1	-4	i	-16	-5	-12	.
CCc1ccccc1NC(=O)CNC(=O)CCc1nc2sc3c(c2c(=O)[nH]1)CCCC3	-5	1	-10	i	-8	.	.	11
CCCN(CC(=O)Nc1ccccc1C)C(=O)C1CCN(c2ncnc3sc(C)c(C)c23)CC1	-7	-9	-13	i	-6	.	.	12
Cc1cccc(-n2c(SC(C)C(=O)O)nc3sc4c(c3c2=O)CCCC4)c1 (stereo unspecified)	-2	2	-3	i	-6	-6	-6	-4

These rows are one share of the data; count on the stated rates, not on these rows.
